Bioassay records: PubChem, National Center for Advancing Translational Sciences (NCATS)
Vaccinia mCherry: inhibitors of vaccinia virus infection (mCherry reporter signal). Potency, µM (doses to about 36.5 µM), inactives show at the highest dose activity change, negative = inhibition, hits mostly inhibitors. Vaccinia virus mCherry reporter infection, fluorescence; about a quarter of the inactives have no number. hit rate 0.63% among 310,000; active = well fitted inhibition curve with a large enough effect; inconclusive = small, poorly fitted or top-dose-only effect; inactive = no such curve, though single readings can be large or run the other way; tested in A549 cells; further: nearly all actives have a fitted effect of over 35% in size; inactives centre near -10
Vaccinia Venus: vaccinia inhibition (Venus reporter). Potency, µM (series often up to 36.5 µM), inactives show at the top dose activity change, negative = inhibition, actives largely listed as inhibitors. Vaccinia virus Venus reporter expression, fluorescence. hit rate 0.46% among 330,000; active means well fitted inhibition curve with a large enough effect; inconclusive means small, poorly fitted or top-dose-only effect; inactive means no such curve, though single readings can be large or run the other way; tested in A549 cells; further: nearly all actives have a fitted effect of over 30% in size; inactives centre near -10
* = called active by the depositor; i = inactive; ? = inconclusive; · = no result given; ! = not confirmed by another sample; [ ] = dose if it differs, or a comment. On the % scale 0 is the no-effect control and ±100 the full control effect; potency means the concentration at half of the fitted maximal effect. Rows were taken by chance. Share with any hit: about 0.87%.

mol | Vaccinia mCherry | Vaccinia Venus
C=CCn1c(CNC(=O)c2ccccc2F)nnc1SCC(=O)N1CCOCC1 | -23.1% | -12.7%
CN(C)C(=O)c1c(NC(=O)c2ccccc2F)sc2c1CCCC2 | -14.9% | -6.3%
CCCCn1c(=O)c(CCC(=O)OCC(=O)Nc2cccc3ccccc23)nc2ccccc21 | -16.2% | -6.1%
Clc1ccc(-c2ccnc(Oc3cc(Cl)ccc3Cl)n2)cc1 | i | -8.2%
CC(=O)c1cc(CN2CCN(C(C)C)C(CCO)C2)cs1 (configuration not stated) | i | -19.5%
CCCCOC(=O)CSc1nc(N)c(C#N)c(-c2ccc(OC)cc2)c1C#N | -5.5% | -3.6%
COc1ccc(NC(=O)CN2C(=O)NC(C)(c3ccc(C)cc3)C2=O)cn1 (configuration not stated) | i | -12.1%
Nc1cc(Cl)nc(N/N=C/c2c(O)ccc3ccccc23)n1 | 28.2µM* | ?

The list goes on:
mol | Vaccinia mCherry | Vaccinia Venus
CC(C)(C)OC(=O)N1CCC(c2c(C(=O)NCC3CCN(C4CCCC4)C3)cnn2-c2cccc(Cl)c2)CC1 (configuration not stated) | -18.0% | -27.8%
CCOc1ccccc1-n1nnc(-c2nc(-c3ccccc3C)no2)c1C | -4.6%[7.34 µM] | 0.4%[7.34 µM]
CCN(Cc1ccccc1)S(=O)(=O)c1c(C)[nH]c(C)c1C(=O)N1CCCCC1 | -13.4% | -5.6%
Cc1ccccc1Cn1nc(C)c(NC(=O)c2noc3c2CCc2ccccc2-3)c1C | ? | ?
COc1ccc(NC(=O)Nc2ccc3c(c2)C(=O)N([C@H](C)CO)C[C@H](C)[C@@H](CN(C)S(=O)(=O)c2ccccc2)O3)cc1 | -25.3% | -7.8%
CC1CCN(c2nc3ccc(C(=O)N4CCN(Cc5ccc6c(c5)OCO6)CC4)cc3s2)CC1 | ? | ?
Cc1cc(N2C(=O)C(O)=C(C(=O)c3ccc(C)o3)C2c2cccc(Cl)c2)no1 (configuration not stated) | -15.5% | ?
Cn1nc(C(=O)NCC(=O)Nc2ccc(F)c(F)c2)ccc1=O | i | -3.9%

Next section:
mol | Vaccinia mCherry | Vaccinia Venus
CC(=O)c1cc2c(cc1NC(=O)Cn1nc(C)c(C)c(C#N)c1=O)OCO2 | -11.9% | -10.2%
COC(=O)C(N)CCCCN (configuration not stated) | 1.7% | -2.8%
CCc1ccc(-c2cc(C(=O)NCc3ccccn3)c3ccccc3n2)cc1 | -17.7% | -13.3%
CN(Cc1ccccc1)C(=O)CCC1CCN(C(=O)c2ccco2)CC1 | -2.1% | -8.8%
CCn1c(SCC(=O)NC2CC2)nnc1C(C)Oc1ccccc1 (configuration not stated) | -8.3% | -17.7%
Cc1ccc(Nc2nc(Nc3ccc(Cl)cc3)nc(N3CCOCC3)n2)cc1 | ? | ?
COc1cc(OC)cc(C(=O)Nc2cccc(NC(=O)c3ccccc3)c2)c1 | -2.7% | -12.7%
CC(=O)NCc1ccc(C(=O)CCl)cc1 | i | -11.8%

Carrying on.
mol | Vaccinia mCherry | Vaccinia Venus
CCOc1ccc(NC(=O)CN(C)C(=O)C2=COCCO2)cc1OCC | i | -11.7%
COc1cccc(CNC(=O)c2ccc3c(c2)nc2n3CCCCC2)c1OC | -21.1% | -13.9%
CCOc1ccc(NC(=O)NC(=O)N(C(C)C)S(C)(=O)=O)cc1 | -11.4% | -3.2%
CCOC(=O)C1CCN(S(=O)(=O)c2ccc(C)c(C)c2)CC1 | -16.4% | -4.0%
CCOC(=O)N1CCC(NC(=O)c2csc3c2CCCC3)CC1 | i | -13.3%
CCOc1ccc(NC(=O)C2C3C=CC4(O3)C2C(=O)N(Cc2cccnc2)C4C(=O)NC2CCCCC2)cc1 (configuration not stated) | -22.3% | -10.0%
CN(C)/C=C/C(=O)c1ccc(Cl)cc1Cl | 15.3% | 6.7%
O=C(NC(=S)Nc1ccccc1Cl)c1ccco1 | i | -17.6%

Other results follow.
mol | Vaccinia mCherry | Vaccinia Venus
Cn1nnnc1SCC(=O)NC(=O)NCc1ccccc1 | -12.6% | -5.5%
Cc1c(-c2cccc(NC(=O)c3ccco3)c2)nc2ncccn12 | i | -13.2%
CCOC(=O)c1cc(-c2ccccc2)nc2nc(N(CC)CC)sc12 | -10.5% | -20.2%
CS(=O)(=O)Nc1cccc(C2=NN(C(=O)c3ccco3)C(c3cccs3)C2)c1 (configuration not stated) | -11.9% | ?
COc1ccc(/C=C/CN2CCC(C(=O)NC(c3ccc(F)cc3)c3ccc4ccccc4n3)CC2)cc1 (configuration not stated) | -15.2% | ?
O=C(CCn1c(=O)c2ccccc2n(CC(=O)NCCC2=CCCCC2)c1=O)NCc1ccco1 | · | -9.2%
CC(C)c1nc(-c2ccccc2)c(-c2ccccc2)[nH]1 | · | ?
Cc1cc(C)cc(Nc2cc(=O)n(C3CCCCC3)c(=O)[nH]2)c1 | · | ?

(list continues)
mol | Vaccinia mCherry | Vaccinia Venus
CN1C2CCC1/C(=C/c1ccccn1)C(=O)/C2=C\c1ccccn1 | 2.51µM* | 6.31µM*
Cc1ccc(C(C)(C)C)c(OCC(=O)Nc2ccc(Cl)cc2C(=O)c2ccccc2)c1 | -2.4% | 0.6%
N#Cc1c(Cl)c(Cl)c(Cl)c(C#N)c1Cl | ? | 14.1µM*!
COC(=O)c1sccc1NS(=O)(=O)c1ccc(F)cc1F | i | -4.2%
CC(=O)N1CCN(C(=S)c2ccc(Cl)cc2)CC1 | i | -11.1%
COc1cc(O)c(C(CC(=O)N2CCN(c3ccccc3)CC2)c2ccc(N(C)C)cc2)c(OC)c1 (configuration not stated) | -13.1% | -16.0%
CCN(CC)c1ccc2cc(C(=O)NNC(=O)c3ccc(S(=O)(=O)N4CCCCC4)cc3)c(=O)oc2c1 | i | -11.6%
Cn1c(N)c(C(=O)COC(=O)c2ccnc3ccccc23)c(=O)n(C)c1=O | i | -10.6%

More records follow:
mol | Vaccinia mCherry | Vaccinia Venus
O=C(CSc1nncs1)NC1CCCCCCC1 | -6.6% | -5.8%
COC(=O)c1ccccc1NC(=O)CCc1c(C)nc2cc(-c3ccc(Cl)cc3)nn2c1C | -6.8% | 0.7%
OCC1(CCOc2ccccc2)CCN(Cc2cn[nH]c2-c2ccc(F)cc2)CC1 | -2.3% | -17.3%
CC(C)CC(NC(=O)CCl)c1ccccc1 (configuration not stated) | i | -11.6%
Cc1ccccc1Nc1c2c(nc3nncn13)CCC2 | 0.4% | -5.7%
COc1cccc(-c2cccc(NC(=O)C3CCN(C4CCC4)CC3)c2)c1 | i | -10.0%
COc1ccc(C)cc1S(=O)(=O)NCC(c1ccc(N(C)C)cc1)N1CCc2ccccc21 (configuration not stated) | -6.5% | -3.5%
Cc1ccccc1Nc1c(-c2c[nH]c3ccccc23)nc2cccc(C)n12 | -7.1% | 2.8%

The list goes on.
mol | Vaccinia mCherry | Vaccinia Venus
Cc1nc(CSc2ccc(Cl)cc2)cc(N2CC(C)OC(C)C2)n1 (configuration not stated) | -5.9% | -5.4%
CCC(Sc1nc2ncnc(N)c2[nH]1)C(=O)O (configuration not stated) | 1.1% | 3.3%
O=C(NC1CCSc2ccccc21)c1ccc(F)c(S(=O)(=O)N2CCOCC2)c1 (configuration not stated) | i | -17.3%
Cc1cc(C)cc(NC(=O)c2cc(S(=O)(=O)N3CCCC3)cn2C)c1 | -29.4% | -17.4%
CN(C(=O)C1CCCN(c2ncnc3c2nc2n3CCCCC2)C1)c1cccc(Cl)c1 (configuration not stated) | -3.0% | -20.8%
CCC(c1nnnn1C1CCCCC1)N(Cc1ccco1)Cc1cc2ccc(OC)cc2[nH]c1=O (configuration not stated) | 3.0% | 7.1%
CCOc1ccc(NC(=O)c2cc(S(=O)(=O)N3CCOCC3)ccc2F)cc1 | -19.3% | -17.2%
O=C(O)[C@H]1C[C@@H]1[C@H](NP(=O)(c1ccccc1)c1ccccc1)c1ccccc1 | i | -14.4%

The list goes on.
mol | Vaccinia mCherry | Vaccinia Venus
Cc1ccc(CNC(=O)C2CC(c3cc(C(F)(F)F)cc(C(F)(F)F)c3)=NO2)o1 (configuration not stated) | -15.3% | -15.6%
CCNC(=O)C1CCCN(C(=O)Cc2cccs2)CC1 (configuration not stated) | 16.0% | -5.6%
COc1ccccc1NC(=S)NN1CCN(C)CC1 | i | -10.1%
CCc1ccccc1NC(=O)CC(c1ccc(OC)cc1)n1cccc1 (configuration not stated) | -14.3% | 2.0%
Cc1cc(C)c2nc(N(Cc3cccnc3)C(=O)c3cccs3)sc2c1 | -17.5% | -7.3%
CC1(C(=O)Nc2cccc(C(F)(F)F)c2)Cc2ccccc2C(=O)O1 (configuration not stated) | -7.8% | 5.0%
COC(=O)[C@]1(C)N[C@H](CN(C)S(=O)(=O)c2ccc(-c3ccccc3)cc2)[C@@H]2C(=O)N(C)C(=O)[C@@H]21 | i | -6.7%
CCN(CC)S(=O)(=O)c1ccc(N2CCOCC2)c(NC(=O)Cc2ccc(Cl)cc2)c1 | -5.9% | -7.3%

Going on with the list.
mol | Vaccinia mCherry | Vaccinia Venus
O=[N+]([O-])c1c(Cl)c(Cl)c(Cl)c(Cl)c1Cl | i | -3.1%
CC(OC(=O)c1ccc(Cl)c(S(N)(=O)=O)c1)C(=O)NCc1ccc2c(c1)OCO2 (configuration not stated) | -2.5% | -3.7%
O=C(c1ccco1)N(Cc1cc2ccccc2[nH]c1=O)C1CCCCC1 | ? | -13.9%
CC1=C(C(=O)Nc2cccc(C)n2)C(c2ccc3c(c2)OCO3)C2=C(CC(c3ccco3)CC2=O)N1 (configuration not stated) | i | -5.3%
O=C(O)CCc1ccc(-c2ccccc2)n1-c1ccc(C(=O)O)cc1 | -0.5% | -1.5%
CC1(C(=O)OCC(=O)Nc2ccc(S(=O)(=O)N3CCOCC3)cc2)CC1(Cl)Cl (configuration not stated) | -5.1% | -20.5%
CC1(C)C(=O)NCCN1C(=O)CCCC(=O)O | -20.3% | 1.5%
COc1ccc(CCNCc2ccncc2)cc1OC | -12.4% | -5.7%

The list goes on:
mol | Vaccinia mCherry | Vaccinia Venus
CSc1c(CC(=O)Nc2ccccc2Cl)n(Cc2ccccc2)c2ccccc12 | · | -16.0%
Cc1ccc(-c2csc(NC(=O)c3cccs3)n2)cc1 | · | ?
CCOC(=O)Cn1c(-c2cccs2)cc2cc(Cl)ccc21 | 5.6% | -6.5%
Cc1c(C(=O)N2CCCCC2)sc2ncnc(NCCc3ccccn3)c12 | -20.5% | -19.7%
COc1ccc(/C=N/NC(=O)C2(C)NC(C)(C)Cc3ccccc32)cc1 (configuration not stated) | -4.7% | 0.4%
Cc1ccc2c(c1)N(CCC(=O)NC1CCCCC1C)C(=O)CO2 (configuration not stated) | -19.5% | -0.9%
CCOc1ccccc1Nc1nc(N)nc(CN(C)C2CCCCC2)n1 | -15.9% | -3.0%
O=C(Nc1ccc(F)c(Cl)c1)c1cc(C2CCCN(S(=O)(=O)c3ccccc3)C2)on1 (configuration not stated) | i | -2.8%

More compounds.
mol | Vaccinia mCherry | Vaccinia Venus
O=C(Nc1cc(-c2nc3ccccc3o2)ccc1Cl)c1cccc2c(Cl)cccc12 | -5.0% | -4.6%
CC(C)NC(=S)N1CCN(C/C=C/c2ccccc2)CC1 | -5.9% | -12.9%
CCOC(=O)/C(C#N)=C1\Nc2ccccc2N=C1N(CC(C)C)CC(C)C | -7.8% | -1.0%
COc1ccccc1N=Cc1c(O)n(C)c(=O)n(C)c1=O | -18.1% | -4.4%
O=c1cc(CN2CCN(S(=O)(=O)c3ccccc3[N+](=O)[O-])CC2)nc2sccn12 | i | -12.7%
CCc1nc(NCCCn2ccnc2)c2oc3ccccc3c2n1 | · | -17.7%
CCCCn1c(N)c(N(CCOC)C(=O)CCCc2cccs2)c(=O)[nH]c1=O | -16.7% | -7.7%
Cc1ccc(NC(=O)CSc2nnc(COc3ccc(Cl)cc3)o2)c(C)c1 | -6.6% | -12.1%

The last two records of the part above come first, to join the parts:
mol | Vaccinia mCherry | Vaccinia Venus
CCCCn1c(N)c(N(CCOC)C(=O)CCCc2cccs2)c(=O)[nH]c1=O | -16.7% | -7.7%
Cc1ccc(NC(=O)CSc2nnc(COc3ccc(Cl)cc3)o2)c(C)c1 | -6.6% | -12.1%
Cc1ccc(C(=O)N2CCC(C(=O)NCc3cccnc3)CC2)cc1 | -11.8% | -5.3%
O=C(CN1C(=O)c2cccnc2Oc2ccc(Cl)cc21)NC1CCCC1 | -1.2% | 2.6%
COc1ccccc1NS(=O)(=O)c1cccc(C(=O)N2CCN(C/C=C/c3ccccc3)CC2)c1 | -14.2% | -24.2%
CCOC(=O)CN1C(c2ccccc2O)Nc2ccc(Br)cc2C1c1ccccc1 (configuration not stated) | -20.3% | -7.4%
CCCNC(=O)CS(=O)Cc1nc(-c2ccc(OC)cc2)oc1C (configuration not stated) | -8.5% | 3.4%
COc1ccc(Cl)cc1NC(=O)N1CCC(C)CC1 | i | -6.9%
COc1ccc(NS(=O)(=O)c2cccc(C(=O)Nc3cccc(C(=O)O)c3)c2)cc1 | i | 0.9%
O=C(O)CC1S/C(=N\N=C2CCCCCCC2)N(c2ccccc2)C1=O (configuration not stated) | 2.3% | -6.1%
O=C(NC1CC1)c1nc(Cn2ccc([N+](=O)[O-])n2)no1 | i | -0.9%
OCC1OC(n2cnc3c(SCc4ccccc4)nc(NO)nc32)C(O)C1O (configuration not stated) | -16.6% | -13.7%
CCOc1ccc(CCNC(=O)c2sc3nc4n(c(=O)c3c2C)CCCC4)cc1OCC | -4.5% | -3.0%
